miR-21 FLuc – miR-21 reporter, rising signal; HeLa miR-21 FLuc reporter, luciferase, 48 h; Potency, µM (top dose mostly 38.3 µM), for the others: at the highest dose reporter change, positive = more light; 340,000 tested, under 10 active; active = well fitted rising curve with a large enough effect; inconclusive = small, poorly fitted or top-dose-only effect; inactive = no such curve, though single readings can be large or run the other way;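 further: % of control where 0% means no effect; miR-21 action dims this reporter so a rising signal means less miR-21 action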
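Using DMEM plus 10% FBS, HeLa miR-21-FLuc cells are incubated with test compounds (final up to about 40uM) for 48 hours; firefly luciferase signal is then imaged following reagent-mediated lysis.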
GLA inh pH 4.5 – blocks human alpha-galactosidase A at pH 4.5. P06280. purified enzyme, 4-MU-alpha-Gal fluorescence, pH 4.5. activity change, negative = inhibition, % at 105 µM. 230,000 tested, under 10 active. AID 1467; inconclusive = small, poorly fitted or top-dose-only inhibition, or a rising curve; inactive = flat fitted curve, though single readings scatter; no compound was filed as active;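 further: 0% = full activity with enzyme and -100% = basal without enzyme; dose as in the result columns while the protocol names 77 µM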
Target sequence (P06280 whole entry, looked up): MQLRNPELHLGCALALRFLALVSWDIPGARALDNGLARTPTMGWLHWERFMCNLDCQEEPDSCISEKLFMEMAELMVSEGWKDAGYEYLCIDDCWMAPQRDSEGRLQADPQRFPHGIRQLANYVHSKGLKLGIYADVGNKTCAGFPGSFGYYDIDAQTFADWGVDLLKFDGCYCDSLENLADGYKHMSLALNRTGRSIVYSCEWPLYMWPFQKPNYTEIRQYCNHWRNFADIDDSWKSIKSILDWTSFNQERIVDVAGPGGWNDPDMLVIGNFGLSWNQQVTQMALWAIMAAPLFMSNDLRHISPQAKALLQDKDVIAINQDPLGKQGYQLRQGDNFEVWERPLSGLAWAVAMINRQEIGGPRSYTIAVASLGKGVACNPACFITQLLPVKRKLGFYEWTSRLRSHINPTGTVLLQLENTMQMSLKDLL
Rango release inh – prevents RanGTP from dissociating the Rango-importin beta complex; O95149+P62826; Biochemical FRET Rango-importin beta, RanGTP-induced dissociation; Potency, µM (top dose mostly 46.1 µM), for the others: at the top dose activity change, negative = inhibition; 340,000 compounds, 0.071% hits; AID 540253; active means falling FRET ratio curve, often poorly fitted, with flat reads before Ran was added; inconclusive means other falling curves, or compound fluorescence or quenching; inactive means flat or rising ratio curve;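 further: potency means the concentration at half of the fitted maximal effect; % of control where 0% means no effect; nearly all actives have a fitted effect of over 45% in size; -100% = wells without RanGTP and RCC1; the record marks most hits as doubtful in a second field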
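Rango/importin beta premix (0.1/0.25 uM final), PBS + 1 mM DTT + 0.02% Tween-20 + 0.1% BSA; cpd 5 min RT; FRET pre-read; + RanGTP-RCC1 (0.6 uM Ran, 2 mM GTP, 0.2 uM RCC1); 45 min RT; FRET post-read, ex 430, em 486/530 nm.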
Rango-impB inh – inhibitors of Rango-importin beta complex formation. Potency, µM (series often up to 92.2 µM), inactives show top-dose inhibition of complex formation. AID 540263. Q14974. Rango CFP/YFP FRET sensor + importin beta, 45 min. 340,000 compounds, 0.031% hits; active = rising FRET ratio curve, often small or poorly fitted; inconclusive = mostly compound fluorescence or quenching in the first reads; inactive = flat curves in all reads;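 further: potency means the concentration at half of the fitted maximal effect; 0% = DMSO wells and 100% = buffer wells lacking importin beta; nearly all actives have a fitted effect of over 15% in size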
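Inhibition scored from the CFP 486 nm/YFP 530 nm FRET ratio 45 min after adding 0.125 microM importin beta to 50 nM Rango biosensor preincubated 5 min with compound (room temperature, PBS with DTT, Tween-20, BSA). No-importin wells as positive control.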
Active calls of the source: *; ? = inconclusive; nt = not tested or not shown; & = joins results of further samples. Not all compounds are listed, so the mix of outcomes need not match the whole.

miR-21 FLuc,GLA inh pH 4.5,Rango release inh,Rango-impB inh,compound
2%,5,0%,2.9%,CCCc1nc2ccccc2c(C(=O)OC2CCOC2=O)c1CC (configuration not stated)
-11%,-9,3%,3.4%,CCSc1nnc(-c2cccc(S(=O)(=O)N(C)C)c2)n1-c1cc(OC)ccc1OC
20%,-5,-15%,0.6%,CCOc1ccc(CN2CCN(Cc3cc4c(cc3Cl)OCO4)CC2CCO)cc1 (configuration not stated)
-2%,nt,-25%,5.7%,Cc1cccc(S(=O)(=O)NC2CCCCCCC2)c1
-27%,-16,-5%,-2.5%,O=C(c1sc2cc([N+](=O)[O-])ccc2c1Cl)N1CCCCC1
nt,nt,2%,-7.2%,COc1cc(/C=C/C(=O)OC(C)C(=O)NC2CCCCC2C)cc(Cl)c1OC (configuration not stated)
2%,nt,2%,-0.5%,O=C(c1ccco1)N1CCN(C(=O)C2CC(=O)N(c3ccccc3)C2)CC1 (configuration not stated)
-1%,9,2%,0.2%,Cn1c(=O)c2c(nc(N3CCOCC3)n2CCCNC2=NCCCCC2)n(C)c1=O
-7%,-5,0%,1.0%,Cc1cccc(-n2cnc3c(sc4nc(N5CCOCC5)c5c(c43)CCCC5)c2=O)c1
nt,nt,5%,3.4%,COc1ccc(OCCCC(=O)OCC(=O)Nc2c(C)nn(-c3ccccc3)c2C)cc1
-2%,-3,19%,-0.9%,Cc1ccc(CSc2ncnc3c2cnn3Cc2ccccc2)cc1
6%,nt,-3%,0.8%,COc1ccc(NC(=O)CSc2nnnn2-c2ccccc2OC)c(OC)c1
0%,3,-4%,4.4%,C=CCn1c(C)nc2ccccc2c1=O
1%,nt,-10%,1.7%,COc1ccc(OCC(=O)NNC(=O)Nc2cccc(Cl)c2)cc1
-2%,2,19%,-2.3%,C(=N\Nc1nc(N2CCOCC2)nc(N2CCOCC2)n1)/c1ccncc1
nt,nt,-8%,1.0%,CCOC(=O)CCN(C(=O)Nc1ccccc1)C1CCCCC1
nt,nt,-2%,-3.1%,O=C(CN1C(=O)NC2(CCCCC2)C1=O)Nc1cc(C(F)(F)F)ccc1N1CCCCC1
-1%,7,-10%,-3.8%,CN(C)/N=C/c1ccc(OC(=O)c2cccc([N+](=O)[O-])c2)cc1
-5%,0,51%,?,CCc1cc2c(=O)c(-c3ccc(F)cc3)c(C)oc2cc1OCC(=O)O
4%,-10,-13%,3.9%,O=C(CSc1nc2c(sc3ccccc32)c(=O)n1CCCN1CCOCC1)NCC1CCCO1 (configuration not stated)
-8%,nt,0%,-5.1%,COc1ccc(Nc2nc(N3CCOCC3)nc(N3CCOCC3)n2)cc1Cl
-2%,-1,-14%,-0.2%,COC(=O)C1=C(C)N=c2s/c(=C/c3cccs3)c(=O)n2C1c1cccs1 (configuration not stated)
-5%,-1,1%,3.7%,CC(=O)N/C(=C\c1ccc(F)cc1)C(=O)NC(Cc1c[nH]c2ccccc12)C(=O)O (configuration not stated)
11%,nt,1%,-0.9%,CCc1nc2ccc(C(=O)N3CCN(c4ccc([N+](=O)[O-])cc4)CC3)cc2nc1CC
-1%,nt,-1%,-4.7%,O=C1CCC(C(=O)Nc2cccc(Br)c2)N1 (configuration not stated)
0%,2,21%,0.1%,CCC(=O)Nc1ccc(Oc2ccc(NC(=O)CC)c(NC(=O)CC)c2)cc1
nt,nt,-5%,0.4%,C[C@H]1COC(=O)[C@@H](CC(=O)OC(C)(C)C)C/C=C\C[C@H](CC(=O)NCCO)C(=O)N1
-2%,-14,-1%,3.3%,Cc1ccc(C)c(NC(=O)Cc2ccc(S(=O)(=O)N3CCCCC3)s2)c1
-10%,nt,-19%,?,CNC(=O)/C(C#N)=C/c1c(N2CCN(c3ccccc3)CC2)nc2c(C)cccn2c1=O
-4%,-10,-2%,0.8%,COc1cc(C)c(/C=C(\C#N)C(=O)Nc2ccc(C)cc2)cc1C(C)C
-16%,-9,-7%,-3.5%,CCOC(=O)Cc1csc2nc(-c3ccccc3)nn12
16%,nt,-17%,-0.7%,Cc1ccc(-c2noc(C3CCCN(C(=O)c4ccc(C(C)(C)C)cc4)C3)n2)o1 (configuration not stated)
-5%,6,-3%,-2.2%,COc1ccc(NC(=O)C/C(C)=N/NC(=O)c2ccncc2)c([N+](=O)[O-])c1
-2%,-1,16%,-2.1%,C/C(=N\Nc1ccc(S(=O)(=O)Nc2ccccc2)cc1[N+](=O)[O-])c1ccc(N2CCOCC2)cc1
43%,-15,4%,2.8%,c1ccc(-c2nc(-c3ccc(-c4ccon4)s3)no2)cc1
-1%,7,-8%,-1.4%,O=C(CCC(=O)Nc1ccccc1)NNC(=O)CCc1ccccc1
20%,nt,27%,1.8%,CCc1ccc(CN2CCC(C(=O)Nc3ccc(Oc4ccccc4)nc3)CC2)o1
nt,nt,-8%,-5.4%,CSc1ncccc1C(=O)OCc1nc2ccsc2c(=O)[nH]1
-8%,nt,-8%,2.7%,Cc1nn(CC(=O)NCc2ccccc2)c(=O)c2cccn12
-10%,1,1%,1.8%,Cc1c(C2C(C#N)=C(N)OC3=C2C(=O)CCC3)cnn1C (configuration not stated)
-33%,4,-10%,-0.8%,Cc1csc(Nc2ccccc2)[n+]1C
-7%,-1,-7%,1.5%,CCN(CC)S(=O)(=O)c1ccc(OCC(=O)NCc2ccco2)cc1
nt,nt,-8%,-3.9%,CN(C)C(=O)CCc1ccc2c3c([nH]c2c1)[C@]1(C)[C@@H](C(=O)N2CCCCC2)C[C@H](CC(=O)NCCc2ccccn2)C(=O)N1CC3
0%,1,10%,-2.0%,COc1cccc(C2CC(c3ccccc3C)n3nc(N)nc3N2)c1 (configuration not stated)
-6%,nt,8%,5.6%,CCC1CCCCN1C(=O)NC(=O)c1ccccc1 (configuration not stated)
4%,0,15%,3.2%,Cc1ccc(NS(=O)(=O)c2ccc3c(c2)NC(=O)CC(=O)N3)cc1C
-11%,-3,7%,1.6%,CCc1ccc2oc(=O)cc(CN3CCOCC3)c2c1
16%,-6,1%,5.9%,CCN(CC)c1ccc(/C=N/NC(=O)c2cnccn2)c(O)c1
0%,-9,-15%,0.8%,CCOC(=O)c1ccc(N=C2SC(C(=O)NC)CC(=O)N2CCc2ccccc2)cc1 (configuration not stated)
nt,nt,-2%,1.3%,O=C(Nc1ccc(S(=O)(=O)N2CCCC2)cc1)c1ccc([N+](=O)[O-])o1
1%,16,0%,2.8%,O=c1[nH]c(/C=C\c2cccnc2)c([N+](=O)[O-])c(=O)[nH]1
-20%,-5,-15%,?,O=C(/C=C/c1ccco1)NCC1COc2ccccc2O1 (configuration not stated)
nt,nt,-2%,0.2%,O=C(COc1coc(CN2CCCc3ccccc32)cc1=O)Nc1cccc([N+](=O)[O-])c1
2%,1,2%,0.1%,CC1CCCC(C)N1NC(=S)Nc1ccc(OC(F)F)cc1 (configuration not stated)
-2%,-1,-15%,7.0%,COC(=O)c1cnn(C(=O)c2cc(OC)ccc2Br)c1N
16%,-3,?,?,COc1cc(-c2nc(-c3ccc4c(c3)-c3ccccc3S4(=O)=O)c(-c3ccccc3)[nH]2)cc(OC)c1OC

Next section.
miR-21 FLuc,GLA inh pH 4.5,Rango release inh,Rango-impB inh,compound
?,nt,7%,1.2%,COc1ccc(S(=O)(=O)Nc2cc(SCC(=O)O)c(O)c3ccccc23)cc1
nt,nt,-11%,-1.7%,O=C(CCSCCC(=O)NN=Cc1ccccc1O)NN=Cc1ccccc1O
-51%,2,14%,0.9%,CNc1oc(-c2ccccc2Cl)nc1C#N
2%,2,19%,-0.3%,O=C(O)CSC12CC3CC(C1)CC(C(=O)O)(C3)C2
0%,-5,6%,0.7%,CC(C)C(NC(=O)C1CCC(C(C)(C)C)CC1)C(=O)NCc1cccnc1 (configuration not stated)
?,nt,-17%,-3.0%,CC[C@@H](C)[C@H](CN[C@H](CNC)C(C)C)NC[C@@H](C)c1ccc(CC(C)C)cc1
nt,nt,-3%,0.6%,Cc1cn(CC(=O)NCCCn2ccnc2)c(=O)[nH]c1=O
-25%,-7,2%,0.4%,COCCN=c1scc(-c2ccccc2)n1/N=C/c1c[nH]c2ccccc12
-2%,nt,-17%,0.6%,CC1CN(C(=O)Cn2cc(S(=O)(=O)CC(=O)N(C)c3ccccc3)c3ccccc32)CC(C)O1 (configuration not stated)
-10%,nt,-15%,0.9%,Cc1ccccc1SCC(=O)N/N=C/c1ccc(F)cc1
-6%&-7%,nt,9%,-4.1%,Cc1cccc(NC(=O)c2ccc(F)c(S(=O)(=O)N3CCC4(CC3)OCCO4)c2)c1
-3%,6,1%,-3.7%,Cc1ccc(NC(=O)Cn2cc(S(=O)(=O)c3ccccc3)c(=O)c3cc(F)ccc32)cc1
0%,-7,-15%,3.8%,Cn1c(=O)n(Cc2ccc(F)cc2)c(=O)c2c1nc1n2CCCN1C1CCCCC1
-5%,0,-6%,-1.6%,Cc1[nH]n(-c2ccccc2)c(=O)c1CCOC(=O)c1cccc(C(F)(F)F)c1
-12%,-1,0%,-1.0%,Cc1ccc2nc(NC(=O)C3=NN(c4ccccc4)C(=O)CC3)sc2c1
-2%,3,7%,-0.1%,CCOc1cc(NC(=S)Nc2cccc(C)c2)c(OCC)cc1NC(=O)CC(C)C
1%,1,2%,-2.6%,CC(C)(C)[C@H]1C=C(C(=O)N2CCN(Cc3ccccc3)CC2)O[C@@H](OCc2ccc(CO)cc2)C1
nt,nt,-6%,1.5%,O=C(CCNS(=O)(=O)c1cccc(Cl)c1)OCC(=O)N1CCN(C(=O)c2ccco2)CC1
-23%,6,-16%,?,O=C(Nc1ccc2nsnc2c1)N1CCCCC1
3%,nt,3%,3.5%,Cc1cc(NC(=O)c2cccc3c2C(=O)N(C2CCCCC2)C3)ccc1Br
14%,-9,8%,5.1%,O=C1C2CCCN2C(c2ccc(F)cc2)N1c1ccc(Cl)cc1 (configuration not stated)
-12%,3,17%,1.1%,CCOC(=O)CCc1c(C)nc2cc(-c3ccccc3OC)[nH]n2c1=O
-7%,nt,11%,3.4%,O=C1Nc2ccccc2/C1=C/c1ccnc2ccccc12
2%,nt,8%,1.1%,CC(C)(C)c1nnc(NC(=O)C2CCN(C(=O)c3ccco3)CC2)s1

Sorted by the number under Rango release inh (largest number first): three of the compounds above.
miR-21 FLuc,GLA inh pH 4.5,Rango release inh,Rango-impB inh,compound
-12%,3,17%,1.1%,CCOC(=O)CCc1c(C)nc2cc(-c3ccccc3OC)[nH]n2c1=O
14%,-9,8%,5.1%,O=C1C2CCCN2C(c2ccc(F)cc2)N1c1ccc(Cl)cc1 (configuration not stated)
-23%,6,-16%,?,O=C(Nc1ccc2nsnc2c1)N1CCCCC1

Later entries.
miR-21 FLuc,GLA inh pH 4.5,Rango release inh,Rango-impB inh,compound
nt,nt,-19%,-1.3%,O=C(NCCCN1CCCC1=O)c1ccccc1OCc1ccc(Cl)cc1Cl
-9%,1,-8%,-2.1%,OCCCc1nc2ccccc2n1CCOc1ccccc1
-3%,nt,-1%,-0.4%,CCCOc1ccc(Cc2c(O)nc(N)[nH]c2=O)cc1C
?,-1,0%,0.2%,O=C(CCl)N=c1sccn1Cc1ccccc1Cl
-26%,-3,2%,-1.6%,Cc1ccc(NC(=O)c2ccccc2Br)cc1S(=O)(=O)N(C)C
-5%,4,12%,0.3%,Cc1cccc(N2C(=O)C3C4C=CC(C5CC45)C3C2=O)n1 (configuration not stated)
-4%,?,-12%,1.5%,O=C(CC1S/C(=N\S(=O)(=O)c2ccccc2)N(c2ccccc2)C1=O)Nc1ccc(F)cc1 (configuration not stated)
23%,-1,9%,0.7%,CC1=NN(c2nc3ccccc3[nH]2)C(=O)/C1=C/N(C)C

An excerpt from above, reduced to Rango release inh, GLA inh pH 4.5 and Rango-impB inh:
canonical_smiles	Rango release inh	GLA inh pH 4.5	Rango-impB inh
O=C(CCl)N=c1sccn1Cc1ccccc1Cl	0%	-1	0.2%
CC1=NN(c2nc3ccccc3[nH]2)C(=O)/C1=C/N(C)C	9%	-1	0.7%
OCCCc1nc2ccccc2n1CCOc1ccccc1	-8%	1	-2.1%
O=C(CC1S/C(=N\S(=O)(=O)c2ccccc2)N(c2ccccc2)C1=O)Nc1ccc(F)cc1 (configuration not stated)	-12%	?	1.5%
Cc1cccc(N2C(=O)C3C4C=CC(C5CC45)C3C2=O)n1 (configuration not stated)	12%	4	0.3%
